T cruzi repl – inhibitors of intracellular T. cruzi growth, primary screen, luminescence, NIH3T3 host cells. T. cruzi beta-gal in NIH3T3, 90 h. inhibition, % (concentration not given with the values). 300,000 compounds, 1.4% hits;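 active means mean inhibition across valid replicates above about 55%, limit read from the data; inconclusive means mean below that limit but half or more replicates reach it; inactive means mean below it, under half of replicates reach it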;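 further: signal also drops with host cell toxicity which is not excluded here; 0% = plate median of DMSO wells and 100% = zero luminescence signal; higher percent means less beta-gal luminescence so fewer parasites; stock transfer was 50 nL into about 50 µL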
RanGTP-Imp inh – inhibitors of RanGTP-importin-beta interaction, primary screen, biochemical, FRET, CFP-Ran, YFP-importin-beta, homogeneous | 300,000 compounds, 1.1% hits | Ran GTPase (GTP-bound) - importin-beta complex | inhibition, % (no concentration beside the values) | cell-free CFP-Ran/YFP-importin-beta FRET ratio | AID 2216, 2009;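 active means most replicates above 15%; inconclusive means exactly half above 15%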;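 further: 0% = DMSO wells and 100% = Ran loaded with GDP instead of GTP; wells of about 40 µL received 100 nL stock; the first replicate is given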
AF4-AF9 inh – inhibitors of AF4 peptide binding to AF9, primary screen, biochemical, AlphaScreen, biotin-AF4 peptide, FLAG-AF9, single point; inhibition, % at 10 µM; 350,000 compounds, 0.47% hits;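 active means every replicate reaching a set inhibition limit, whatever the replicate mean, cut at about 25% in these data; inconclusive means mean inhibition reaches that limit but some replicates miss it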;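 further: 0% = plate neutral control median and 100% = total signal loss; the record names both 10 and 1 µM as test concentration; the first replicate is given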
Bfl-1 A1 inh – caspase 3/7 activation in MEF A1-2A-BIM cells, primary screen, A1 inhibitor project, cell-based, luminescence, HTS. caspase activation, % (test concentration not listed). Caspase-Glo 3/7 luminescence, 3 h; percent of clofoctol response, vehicle zero. 330,000 compounds, 0.066% hits;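 active means over half of replicate activation scores above 10%, or exactly half above 10 with the replicate mean above 10; inconclusive means replicate mean below 10 yet half the replicates above 10; inactive means over half of replicates below 10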;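 further: wells of about 30 µL received 50 nL stock; many hits fall short of the cut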
Vif A3G – inhibitors of Vif binding to APOBEC3G peptide, primary screen, biochemical, TR-FRET, GST-Vif 1-94, biotin-A3G peptide, dose response retest (AID 1117319) | 260,000 compounds, 0.57% hits | TR-FRET GST-Vif / biotin-A3G peptide binding; higher % means a stronger effect; test concentration not given here; strong numbers were not always called active | Virion infectivity factor (Human immunodeficiency virus type 1 group M subtype B (isolate … | inhibition, %, or IC50 in µM where a hit was titrated;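 active means above the screen mean plus three standard deviations and confirmed in dose response; inconclusive means results disagree or hit not tested in dose response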;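 further: Vif residues 1-94 fused to GST binding biotinylated APOBEC3G peptide 110-148; 0% = full assay without inhibitor and 100% = GST in place of GST-Vif; retest series ran down from 100 µM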
Calb FLC – C. albicans growth inhibition with fluconazole, primary screen, CaCi-2 strain, Alamar Blue fluorescence; C. albicans CaCi-2 (fluconazole-resistant clinical isolate) + fluconazole, 48 h; growth inhibition, % (test concentration not listed); 300,000 compounds, 0.57% hits; AID 1979, 2009;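 active means most replicates above 75%; inconclusive means exactly half above 75%; inactive means most below 75%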;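 further: all wells also contain fluconazole at 8 µg/ml as a sub-toxic cotreatment; 0% = median of DMSO wells and 100% = median of geldanamycin control wells; wells of about 8 µL received 7.5 nL stock; the first replicate is given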
LANA-H2A inh – blockers of LANA interaction with H2A/H2B – biochemical, FP readout, HTS, primary screen; Protein LANA1 (Human herpesvirus 8 type P (isolate GK18)), Q9QR71; cell-free LANA-H2A/H2B peptide, fluorescence polarization; inhibition, % (no concentration beside the values); 320,000 compounds, 0.6% hits; in the data active means inhibition mostly above about 10%, no sharp cut-off; inactive means mostly below about 6.7%;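 further: stock transfer was 7.5 nL into about 10 µL; 0% = median of vehicle wells and 100% = median of positive control wells; one replicate is shown; the record names a cut of 25% in any replicate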
Target sequence (Q9QR71 whole entry, looked up): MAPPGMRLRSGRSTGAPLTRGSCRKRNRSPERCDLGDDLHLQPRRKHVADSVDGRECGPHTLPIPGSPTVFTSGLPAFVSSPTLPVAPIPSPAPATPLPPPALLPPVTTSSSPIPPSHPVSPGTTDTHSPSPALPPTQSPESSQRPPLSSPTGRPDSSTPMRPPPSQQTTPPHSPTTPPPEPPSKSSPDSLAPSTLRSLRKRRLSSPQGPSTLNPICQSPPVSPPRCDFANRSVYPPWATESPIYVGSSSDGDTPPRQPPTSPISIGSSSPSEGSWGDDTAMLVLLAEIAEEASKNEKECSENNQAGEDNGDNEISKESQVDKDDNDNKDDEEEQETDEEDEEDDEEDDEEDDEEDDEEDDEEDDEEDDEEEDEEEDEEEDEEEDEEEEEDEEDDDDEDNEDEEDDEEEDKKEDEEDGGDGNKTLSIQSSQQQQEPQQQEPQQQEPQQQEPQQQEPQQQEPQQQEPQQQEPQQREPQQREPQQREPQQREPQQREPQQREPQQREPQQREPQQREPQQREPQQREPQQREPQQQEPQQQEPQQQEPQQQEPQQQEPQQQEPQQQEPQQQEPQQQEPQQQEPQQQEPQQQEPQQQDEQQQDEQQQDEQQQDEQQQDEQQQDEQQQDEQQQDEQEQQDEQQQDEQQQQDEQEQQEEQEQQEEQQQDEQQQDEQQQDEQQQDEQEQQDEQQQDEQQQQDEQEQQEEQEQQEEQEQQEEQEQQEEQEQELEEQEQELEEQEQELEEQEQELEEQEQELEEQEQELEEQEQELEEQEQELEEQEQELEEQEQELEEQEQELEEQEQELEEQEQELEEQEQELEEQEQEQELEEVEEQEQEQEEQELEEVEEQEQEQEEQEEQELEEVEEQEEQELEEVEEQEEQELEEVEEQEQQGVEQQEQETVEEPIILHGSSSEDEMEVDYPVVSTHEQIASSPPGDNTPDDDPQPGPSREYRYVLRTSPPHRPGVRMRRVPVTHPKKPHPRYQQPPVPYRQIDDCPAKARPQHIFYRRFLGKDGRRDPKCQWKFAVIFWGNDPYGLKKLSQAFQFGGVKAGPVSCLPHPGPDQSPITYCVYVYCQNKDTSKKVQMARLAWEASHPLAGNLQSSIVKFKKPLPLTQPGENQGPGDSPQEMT
Beta cell apopt – inhibitors of cytokine-induced beta cell apoptosis, primary screen, luminescence; INS-1E cytokine-induced death, ATP luminescence, 48 h; percent of positive-control rescue, neutral wells zero; protection from apoptosis, % (concentration not given with the values); 300,000 compounds, 0.8% hits;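 active means all replicates at 75% or more, or half of them and the mean; inconclusive means half reach 75% but not the mean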;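 further: 0% = cytokine-treated negative control wells and 100% = positive control rescue; higher means more ATP so stronger rescue from cytokine killing; wells of about 40 µL received 100 nL stock; the first replicate is given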
Numbers without * were called inactive; ? = inconclusive; nt = not tested or not shown; & = joins results of further samples.

Results follow in this order: RanGTP-Imp inh	Vif A3G	Beta cell apopt	Calb FLC	Bfl-1 A1 inh	AF4-AF9 inh	T cruzi repl	LANA-H2A inh
Cc1ccc2[nH]c(C(=O)N3CCN(c4cccc(Cl)c4)CC3)cc2c1
 : -3.0	nt	0	17	0.2	-1.2	6	0.3
COc1ccc(CC(=O)NCCCSc2ccccc2)cc1OC
 : -2.5	nt	4	0	-1.2	0.9	-2	4.2
Cc1ccccc1OCCC(=O)OCC(=O)Nc1ccc(C(N)=O)cc1
 : 2.8	nt	0	3	0.1	0.7	-20	-5.5
O=C1Nc2ccccc2C1C(C[N+](=O)[O-])c1ccccn1 (stereo not given)
 : 1.8	1%	-5	-1	0.2	1.7	-5	0.2
CCOc1ccc(C(=O)C[n+]2ccc(C(=O)NCCO)cc2)cc1
 : 1.1	nt	2	-3	0.2	-1.0	-10	-7.6
Cc1nnc(SCc2cccc([N+](=O)[O-])c2)s1
 : -4.0	-6%	-8	-5	-0.5	-0.5	5	-2.9
CCOc1ccc(C(O)C(CN2CCOCC2)c2ccccc2)cc1 (stereo not given)
 : 0.6	1%	-3	10	0.3	nt	1	-4.3
CCOC(=O)N1CCN(Cc2nc3ccc([N+](=O)[O-])cc3c(=O)n2-c2ccccc2F)CC1
 : 2.5	-1%	1	-3	0.4	0.2	22	-1.6
CCS(=O)(=O)Nc1ccc(C(=O)CC2(O)C(=O)Nc3ccc(Br)cc32)cc1 (stereo not given)
 : 2.8	?	-8	-25	-0.5	nt	6	2.3
CCOC(=O)c1cccnc1SCC(=O)N(C)c1ccccc1
 : -2.2	9%	-7	5	0.5	nt	8	4.5
C/C(CC(=O)NCc1ccc(F)cc1)=N\NC(N)=S
 : 0.6	nt	3	-7	-1.0	-22	-18	-1.1
Cc1ccc(-n2c(Cc3cccn3C)nnc2SCC(N)=O)cc1
 : -0.8	1%	-4	0	0.8	9.0	-7	-5.2
Cc1nnc(SCc2cc(=O)n3[nH]cnc3n2)s1
 : -11	0%	-10	nt	-0.1	nt	-2	-1.7
COc1ccc(CC(=O)Nc2ccc(N3CCN(c4ccc(OC)cc4)CC3)c(C#N)c2)cc1
 : 0.9	?	-4	58	0.0	nt	-4	2.0
COc1ccccc1N(CCN1C(=O)c2cccc3cccc(c23)C1=O)C(=O)c1ccncc1
 : ?	nt	-1	-8	-0.5	nt	-15	-4.4
O=C1c2ccccc2-c2nc3ccccc3n21
 : 1.1&4.9	13%&-9%	-3	7&2	-1.9&-0.5	-4.1	4&20	2.2&3.3
COc1ccc(CCn2c(C)cc(C(=O)CSc3nnnn3C)c2C)cc1
 : -1.9	27%	-4	1	0.9	nt	-2	2.2
O=C(Nc1cccc(S(=O)(=O)N2CCCC2)c1)c1cncc(Br)c1
 : nt	nt	-6	nt	0.1	1.1	nt	0.3
CCOC(=O)N1CCC(NC(=O)C2=CCN(S(=O)(=O)c3ccc(F)cc3)CC2)CC1
 : -0.8	-1%	1	4	0.5	nt	4	-4.8
COc1cc2[nH]cc(C(=O)NCCc3ccccc3)c(=O)c2cc1OC
 : nt	-3%	-4	-7	1.4	nt	-10	-0.6
COc1ccccc1NC(=S)NC(=O)C(C)C
 : -3.6	-9%	-13	-3	0.7	nt	-10	-0.1
CCC(=O)Nc1nnc(SCC(=O)NC2CCCC2)s1
 : 3.0	nt	-1	24	0.2	2.0	-6	-1.2
COc1ccccc1NC(=O)CCCc1nc(-c2ccc(OC)c(OC)c2)no1
 : -2.4	nt	-1	-5	0.4	-2.7	-4	0.0
CC(=O)Nc1cccc(NC(=O)c2cc(Cl)ccc2Cl)c1
 : 1.4	2%	1	-17	0.2	-1.7	-16	2.4
CN(C)S(=O)(=O)c1ccc2c(c1)C(=NO)c1cc(S(=O)(=O)N(C)C)ccc1-2
 : -2.4	-10%	3	2	1.1	0.5	-9	-6.4
CC(NC(=O)C(C)(C)C)C(c1cccs1)N1CCOCC1 (stereo not given)
 : -0.4	4%	0	-7	0.7	-21	3	-0.1
COc1ccc2c(c1)nc(CN1CCN(CCO)CC1)n2C
 : 1.3	nt	-1	-1	0.3	-2.7	-8	-1.3
OCC[C@H]1C[C@@H](O)[C@H](O)[C@]2(OCc3ccccc32)O1
 : nt	nt	7	nt	-0.1	3.1	nt	5.6
CCc1ccccc1NC(=O)C1CCN(S(=O)(=O)c2ccc3c(c2)N(C(C)=O)CCO3)CC1
 : 2.9	nt	6	-4	0.7	0.2	-3	0.6
CC(OC(=O)C1=COCCO1)C(=O)Nc1cc(S(=O)(=O)N2CCCCC2)ccc1Cl (stereo not given)
 : 2.3	16%	nt	3	-0.8	0.3	14	0.3
COc1ccc([N+](=O)[O-])cc1NC(=O)c1ccc(N(Cc2ccccc2C)S(C)(=O)=O)cc1
 : -0.2	nt	6	4	0.8	-2.4	24	-5.3
O=C(c1cnsn1)N1CCN(c2ccccc2)CC1
 : nt	25%	-2	nt	0.0	nt	nt	-7.8
Cc1ccc(-n2c(C)nc3c(cnn3-c3ccc(C)c(C)c3)c2=O)cc1C
 : 30*	-3%	-1	-5	0.0	-9.8	24	-2.1
CCOC(=O)c1ccccc1NC(=O)CSc1ccc(-c2cccnc2)nn1
 : nt	-1%	4	-4	0.3	1.1	nt	-2.4
O=C(NCCCn1ccnc1)/C(=C\c1ccccc1F)NC(=O)c1ccccc1
 : -0.8	nt	-5	-3	-0.7	0.1	-5	-0.5
COc1ccc(-c2nc(CN3CCC(C(=O)N4CCOCC4)CC3)c(C)o2)cc1OC
 : -3.0	-1%	2	-2	1.0	-9.0	-19	0.9
COC(=O)c1[nH]c2cc(C)ccc2c1NC(=O)CN1CCc2cc(OC)c(OC)cc2C1
 : 1.7	1%	-8	100*	-0.4	nt	18	9.7
NC(=O)C1CCN(C(=O)CCn2c(=O)oc3ccccc32)CC1
 : nt	3%	-11	nt	0.2	0.7	nt	5.1
O=C(O)C1=C(OCc2ccccc2)C(=O)NCC1
 : 3.0	-5%	-3	-6	0.5	0.2	-8	3.4
CN(Cc1ccccc1Cl)C(=O)CNC(=O)C12CC3CC(CC(C3)C1)C2
 : nt	nt	-1	nt	0.1	-1.6	nt	-2.4
NC(=O)Cn1nc2sc3ccccc3n2c(=O)c1=O
 : 5.0	-9%	1	-4	0.3	-2.9	-3	-0.9
COc1ccc(N=C2S/C(=C\c3cc(C)n(C)c3C)C(=O)N2C)cc1
 : 0.6	1%	-16	-2	0.1	nt	14	-7.5
COc1ccc(-c2cn3c(C)c(C(=O)N4CCN(c5ccccc5F)CC4)sc3n2)cc1
 : 3.4	nt	-2	-7	-0.2	-1.5	37	-1.5
COc1cccc(NC(=O)Cn2c(-c3cncs3)nc3ccccc32)c1
 : 1.8	1%	10	-10	0.0	nt	4	1.5
N#CCC(=O)N/N=C/c1cn(Cc2ccc(Cl)cc2Cl)c2ccccc12
 : 2.5	?	8	-4	1.3	-0.3	-4	2.6
C=CCSc1nnc2nc3c(nn12)c1cc(C)ccc1n3CC=C
 : 4.9	22%	-9	20	0.7	nt	19	2.1
Cc1cc(C)cc(NS(=O)(=O)c2ccc3[nH]cc(C(=O)NCc4ccco4)c(=O)c3c2)c1
 : 1.9	32%	25	-5	0.2	nt	-1	4.8
N/C(=N\N=C\c1ccc(O)c(O)c1)c1nonc1N
 : -2.5	-9%	-4	-30	-8.4	6.2	5	18*
O=C(NCc1cccs1)c1cc2c(s1)-c1ccccc1OC2
 : 3.7	3%	1	4	0.7	1.4	-15	-8.9
CC1c2cc3c(cc2CCN1C(=O)c1ccc(Cl)cc1)OCCCO3 (stereo not given)
 : 6.8	nt	-2	?	-0.6	5.9	-26	-4.8

(more compounds)
Results follow in this order: RanGTP-Imp inh	Vif A3G	Beta cell apopt	Calb FLC	Bfl-1 A1 inh	AF4-AF9 inh	T cruzi repl	LANA-H2A inh
C/C(=N\OCC(=O)Nc1ccccc1Br)c1cccs1
 : -0.3	-4%	5	-1	-0.1	0.8	19	-1.9
O=C(NNC(=O)c1ccco1)c1cccc([N+](=O)[O-])c1
 : -4.8	6%	-1	-2	-0.8	nt	-14	-2.4
Cc1ccc(Nc2nc(CSc3nnnn3C)cs2)cc1
 : -1.6	-5%	-7	40	-2.3	nt	6	0.0
CS(=O)(=O)c1ccc(C(=O)Nc2ccccc2Cl)cc1
 : ?	0%	-4	7	0.2	-3.1	5	1.8
COc1ccc(NC(=O)CCc2nc(-c3ccccc3F)no2)cc1
 : 2.7	70%	-1	-1	-0.5	nt	9	-4.9
CCN(CC)C(=O)CSc1ncnc2c1nnn2-c1ccc(F)cc1
 : -2.4	-8%	2	-21	-1.5	nt	-6	3.8
O=C(Nc1ccncc1)c1ccc([N+](=O)[O-])cc1Cl
 : 2.0	-12%	-6	17	0.5	-0.9	9	0.9
COc1ccc(N(CC(=O)Nc2cccnc2)S(=O)(=O)c2ccccc2)cc1OC
 : 0.1	nt	0	6	0.1	-0.2	-11	-4.4
Cc1ccc(OCC(=O)Nc2ccc(S(=O)(=O)N3CCOCC3)cc2)c(C)c1
 : -3.1	2%	nt	-3	nt	0.2	-19	nt
O=C(CSc1ncnc2[nH]ncc12)Nc1cccc(Oc2ccccc2)c1
 : -6.4	nt	-7	12	-0.1	-7.1	4	1.9
O=C(CN1CCc2ccccc2C1)Nc1cccc(S(=O)(=O)N2CCOCC2)c1
 : nt	-1%	0	nt	1.4	3.4	nt	2.9
O=C(CNCc1ccco1)Nc1cc(S(=O)(=O)N2CCOCC2)ccc1N1CCCC1
 : 4.8	0%	0	5	-0.2	1.9	-6	-0.5
NC(=S)NNC(=O)C12CC3CC(CC(C3)C1)C2
 : -1.2	nt	-4	1	1.7	-2.1	-1	-4.2
Cc1ccc(C(=O)NN(CCC#N)C2=NS(=O)(=O)c3ccccc32)cc1
 : -2.4	-5%	-10	8	0.2	-2.2	-2	-4.3
CC1CCc2sc(C(=O)OCC(=O)NCc3ccccc3)cc2C1 (stereo not given)
 : 3.3	-10%	-8	4	0.6	nt	-2	0.5

Source: PubChem BioAssay
